Screening data deposited in PubChem BioAssay by National Center for Advancing Translational Sciences (NCATS).
PINK1 expr mod: PINK1 expression modulation | PINK1 immunofluorescence, high-content cytometry, 24 h | actives 0.2% (n = 410,000) | Potency, µM (titrated, usually from 76.6 µM), inactives show at the top dose activation (PINK1 increase), most hits filed as activators | AID 624263; active = well fitted activation curve with a large enough effect; inconclusive = small, poorly fitted or top-dose-only effect; inactive = flat fitted curve, though single readings scatter; cell line not stated here;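 further: potency means the concentration at half of the fitted maximal effect; % of control where 0% means no effect; nearly all actives have a fitted effect of over 65% in size; a mitochondrial uncoupler was the plate control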
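Decision-based qHTS: stable cells, 24 h exposure to five compound concentrations, CCCP as control. Fixed cells stained for PINK1 plus nuclear, mitochondrial and cell markers, cytometer read.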
D2 potentiator: positive allosteric modulators of human D2 dopamine receptor. P14416. DiscoveRx D2 beta-arrestin cells, luminescence, 90 min; 100% = 57 uM dopamine signal. potentiation, % (concentration not given with the values). actives 0.23% (n = 360,000); active = potentiation of 50% or more; inconclusive = 30% to 50%; inactive = 30% or less;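 further: compound concentration not given in the record; tested on top of an EC20 dose of dopamine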
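PathHunter beta-arrestin assay in DiscoveRx D2 cells. Compounds were added with an EC20 of dopamine (50 nM final) for 90 min at 37 deg C. Luminescence was read 1 h after detection reagent, with 57 uM dopamine as the EC100 control.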
Sfp PPTase inh: inhibitors of Bacillus subtilis Sfp phosphopantetheinyl transferase; Potency, µM, without a hit: max response, negative = inhibition, actives largely listed as inhibitors; actives 3.5% (n = 310,000); Biochemical Sfp PPTase activity, qHTS; Q9F4F7; active means well fitted inhibition curve with a large enough effect; inconclusive means small, poorly fitted or top-dose-only effect, or another doubt; inactive means no such curve, though single readings can be large or run the other way;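 further: the enzyme is Sfp with the accession as filed and its product quenches rhodamine fluorescence; potency means the concentration at half of the fitted maximal effect; 0% = enzyme reaction without inhibitor and -100% = no enzyme wells; top concentration of the series not given in the record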
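After 15 min at room temperature with compound, 15 nM Sfp received 5 uM rhodamine-CoA plus 12.5 uM BHQ-2-ybbR (50 mM Hepes pH 7.6, 10 mM MgCl2). Rate came from the fluorescence difference over 30 min, ex 525/em 598 nm.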
TRPV1 PAM: potentiators of human vanilloid receptor 1 (TRPV1); Q8NER1; TRPV1-expressing cells, Fluo-8 calcium influx, capsaicin EC20 potentiation; host cell line not named in the record; control for the full effect not named in the record; potentiation, % at 8.33 µM; actives 0.02% (n = 320,000); AID 540277; active means potentiation above 80%; inconclusive means 30% to 80%; inactive means below 30%; further: 0% is about no effect
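TRPV1-expressing cells were cultured overnight at 35.5C and loaded with Fluo-8 calcium dye for 40 to 90 min at room temperature. After a 10 s baseline, compound was added and calcium influx was read kinetically for 3 min (ex 480/em 520 nm).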
D2 agonist: activates the human D2 dopamine receptor; actives 0.084% (n = 360,000); DiscoveRx PathHunter D2 beta-arrestin, luminescence, 90 min; 100% = 57 uM dopamine signal; activation, % (no concentration beside the values); AID 624465; in the data active = activation above about 40%; inconclusive = about 15% to 40%; inactive = below about 15%; further: compound concentration not given in the record; the text of the record calls up to 30% inactive
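DiscoveRx PathHunter D2 beta-arrestin cells (2,100/well) attached overnight, then compound-stimulated 90 min at 37 C in HBSS/10 mM HEPES/0.1% Tween-20 buffer; beta-galactosidase complementation read by luminescence after 1 h at ambient temperature. Dopamine 57 uM final (EC100) as control.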
Six1-Eya2 blk: Six1/Eya2 interaction inhibition | activity change, % (concentration not given with the values) | Q15475+O00167 | AlphaScreen GST-Six1/His-Eya2 binding, biochemical; hits give low values; control for the full effect not named in the record | actives 0.56% (n = 360,000); in the data active = activity change below about -65%; inconclusive = about -30% to -65%; inactive = above about -30%; further: on the % scale 0 is the no-effect control and ±100 the full control effect
Target sequence (O00167 whole entry, looked up): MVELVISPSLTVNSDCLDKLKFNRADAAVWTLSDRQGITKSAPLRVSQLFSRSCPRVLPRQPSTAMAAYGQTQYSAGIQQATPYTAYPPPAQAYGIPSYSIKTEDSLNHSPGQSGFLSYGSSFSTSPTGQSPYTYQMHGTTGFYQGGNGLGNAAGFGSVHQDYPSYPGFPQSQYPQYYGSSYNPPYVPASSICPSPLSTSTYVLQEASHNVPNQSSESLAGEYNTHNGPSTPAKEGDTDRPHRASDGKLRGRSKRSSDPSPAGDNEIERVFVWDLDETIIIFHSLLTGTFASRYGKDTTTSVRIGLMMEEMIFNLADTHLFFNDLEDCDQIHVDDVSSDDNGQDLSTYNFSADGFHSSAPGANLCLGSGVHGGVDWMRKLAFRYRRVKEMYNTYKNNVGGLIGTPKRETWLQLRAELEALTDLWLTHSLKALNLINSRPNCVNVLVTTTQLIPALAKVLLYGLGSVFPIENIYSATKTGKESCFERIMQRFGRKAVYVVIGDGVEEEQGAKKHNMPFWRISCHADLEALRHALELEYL
Target sequence (Q15475 whole entry, looked up): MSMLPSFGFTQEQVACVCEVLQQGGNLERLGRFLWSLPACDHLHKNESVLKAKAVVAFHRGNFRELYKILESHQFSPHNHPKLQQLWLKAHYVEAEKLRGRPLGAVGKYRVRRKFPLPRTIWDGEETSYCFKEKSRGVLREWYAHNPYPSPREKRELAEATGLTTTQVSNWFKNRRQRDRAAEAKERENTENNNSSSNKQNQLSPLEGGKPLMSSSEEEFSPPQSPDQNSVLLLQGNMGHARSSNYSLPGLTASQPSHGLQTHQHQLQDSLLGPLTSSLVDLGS
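Homogeneous AlphaScreen proximity assay pairing GST-Six1 with His-tagged Eya2 (added as 5X mix: 250 nM and 500 nM) in 50 mM Tris pH 8.0, 300 mM NaCl, 1 mM TCEP. Glutathione donor and nickel acceptor beads; 1 h, 37 °C, dark.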
CtBP-E1A inh: inhibitors of CtBP/E1A interaction. AlphaScreen GST-E1A/His-CtBP binding, 1536-well; hits give low values; control for the full effect not named in the record. activity change, % (no concentration beside the values). actives 0.49% (n = 340,000). AID 651724; in the data active means activity change below about -65%; inconclusive means about -30% to -65%; inactive means above about -30%; further: on the % scale 0 is the no-effect control and ±100 the full control effect; compound concentration not given in the record
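GST-E1A and His-tagged CtBP (125 nM each as 5X stock) were preincubated with pin-transferred compound for 2 h at 37 °C in the dark, then glutathione donor and nickel acceptor beads were added for 1 h before AlphaScreen reading.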
The depositor's hits bear a star; ? = inconclusive; . = not tested or not shown; [ ] = another dose, or the depositor's remark.

cpd	SMILES	PINK1 expr mod	D2 potentiator	Sfp PPTase inh	TRPV1 PAM	D2 agonist	Six1-Eya2 blk	CtBP-E1A inh
1	O=C(NC(=S)N1CCN(c2ccc([N+](=O)[O-])cc2Cl)CC1)c1ccco1	1.0%	-20	3%	8	0.7	2	-1
2	Brc1ccc(C2NCCS2)cc1 (stereo unspecified)	0.0%	1	-22%	4	-3.6	-16	?
3	CC(=O)c1sc(NC(=O)c2cccc(N3C(=O)CCC3=O)c2)nc1-c1ccccc1	?	10	.	3	2.4	9	-4
4	COc1ccc(-c2oc3c(c2C#CC(C)(C)O)C(OCCO)CC3)cc1 (stereo unspecified)	-1.1%	.	.	.	.	-5	0
5	O=C(Cc1ccccc1[N+](=O)[O-])NNC(=O)Nc1ccc2c(c1)OCO2	2.5%	8	11%	0	-1.5	-1	0
6	COc1ccc(NC(=S)Nc2ccccc2Cl)cn1	0.1%	4	0%	-4	-2.6	2	6
7	COc1cc(C(=O)NCc2nnc(SCC(=O)NCc3ccco3)o2)cc(OC)c1OC	-1.4%	-12	7%	24	-2.6	-2	-3
8	Cc1ccc(NC(=O)c2cccc(S(=O)(=O)N(C)C3CCCCC3)c2)nc1	3.6%	-8	.	-10	-2.5	-6	1
9	CC1CCCC(C)N1C(=O)CSc1nnnn1-c1cccc2c1CCCC2 (stereo unspecified)	1.1%	-21	4%	-10	-4.8	-4	-4
10	CCOC(=O)c1nc(NCc2ccccc2)c2ccccc2n1	1.4%	-9	16%	-14	0.9	-1	9
11	CCS(=O)(=O)c1nc(S(=O)(=O)c2ccc(Cl)cc2)c(NCCOC)s1	1.8%	-21	-11%	-14	-2.6	-2	7
12	CC1CCCC(C)N1C(=O)c1cc(-c2ccc3c(c2)OCO3)on1 (stereo unspecified)	0.1%	-4	-5%	?	-0.7	0	10
13	O=C(COc1ccc(C2SCCS2)cc1)NNC(=O)C(Cl)Cl	0.1%	-10	19%	-5	-0.9	-2	-19
14	C[C@@H]1CN([C@@H](C)CO)C(=O)c2cc(Br)cnc2O[C@H]1CN(C)Cc1cccnc1	2.1%	6	.	.	-1.9	0	6
15	CC1(C)NC(=O)N(CC(=O)OCC(=O)Nc2cccc(S(N)(=O)=O)c2)C1=O	-0.5%	3	18%	-4	-3.9	-1	.
16	COc1ccc(C(C)=O)cc1CN1C(=O)C(C)ON=C1c1ccccn1 (stereo unspecified)	0.2%	-3	.	.	6.4	-5	4
17	O=C(NCC(=O)N1CCN(C(c2ccccc2)c2ccccc2)CC1)c1ccc(Br)o1	1.3%	-17	-11%	-1	0.9	-19	-8
18	COCCN(C(=O)CSc1ncc(C(F)(F)F)cc1Cl)c1c(N)n(Cc2ccccc2)c(=O)[nH]c1=O	2.6%	-4	9%	5	-3.9	2	7
19	O=C(O)CCCNS(=O)(=O)c1ccc2ccccc2c1	-0.9%	-25	-10%	-42	-3.5	29	3
20	Cc1ccc(-c2cc(C(=O)Nc3cnn(C45CC6CC(CC(C6)C4)C5)c3)no2)cc1	?	-4	14%	4	-0.8	2	1
21	Cc1cc(C)cc(N2C(=O)CSC2c2cccs2)c1 (stereo unspecified)	0.6%	-12	-1%	-4	-3.0	2	-5
22	CC(C)(C)OC(=O)C[C@@H]1C/C=C\C[C@H](CC(=O)N(CCO)Cc2ccccc2)C(=O)NCCOC1=O	0.1%	.	.	.	-1.8	2	8
23	C/C(=N\NC(=O)c1cc(C(C)C)[nH]n1)c1ccncc1	1.3%	-1	2%	8	-1.7	7	1
24	Clc1cncc(Cl)c1N/N=C/c1ccccc1	0.0%	-6	-9%	-5	-8.4	-12	5
25	CCOc1ccc2[nH]cc(C(=O)N3CCN(C4CCCCC4)CC3)c(=O)c2c1	-4.9%[38.3 µM]	-7	.	.	0.1	1	18
26	CC(C)(C)OC(=O)NCCCCC1=CC2=CC(=O)C(C)(O)C(=O)C2=CO1 (stereo unspecified)	0.3%	-8	-14%	.	-2.3	-10	5
27	Cc1occc1C(=O)Nc1nnc(-c2ccncc2)s1	-0.5%[38.3 µM]	23	-7%	2	3.0	-1	-1
28	Cc1ccc(C(=O)NC(=S)Nc2ccc(N3CCOCC3)cc2)cc1C	1.4%	-3	1%	2	-0.7	-6	-8
29	Cc1nn2c3c(cnc2c1-c1ccc(Cl)cc1)C(=O)CC(c1ccco1)C3 (stereo unspecified)	7.4%	12	4%	-4	3.6	3	-10
30	N#CC1=C(N)Oc2n[nH]c(-c3ccccc3)c2C12C(=O)Nc1ccccc12 (stereo unspecified)	-2.0%	?	13%	6	4.3	3	0
31	O=C(NC(=S)Nc1ccc2oc(-c3ccncc3)nc2c1)c1ccccc1F	3.8%	-1	?	-2	-2.5	-16	0
32	Cc1cc(=O)[nH]c(SCC(=O)NCC2CCCO2)n1 (stereo unspecified)	0.0%	-2	10%	5	-4.8	3	10
33	Cc1nn(-c2ccccc2)c(Cl)c1/C=N/N1CCN(c2ccccn2)CC1	7.6%	-6	19%	-1	-1.2	-5	-4
34	COc1ccccc1-n1cnnc1SCC(=O)Nc1cccnc1Cl	-0.3%	-9	14%	5	0.3	2	-4
35	O=C(N/N=C(/CC(=O)c1cccs1)C(F)(F)F)c1ccc(O)cc1	-2.4%	-12	32%	-2	-6.1	-25	-19
36	COc1ccccc1/C=C/C=N/n1c(-c2ccccn2)n[nH]c1=S	2.9%	-24	2%	-4	-8.4	-67*	.
37	C1CC(CN2CCOCC2)CN(c2nc3nonc3nc2N2CCSCC2)C1 (stereo unspecified)	-2.5%	-11	-28%	-6	1.0	-1	2
38	Cc1cc(C)c(NC(=O)COc2nc3ccccc3nc2C)c(C)c1	11%	13	13%	3	3.7	6	17
39	S=c1[nH]nc(Cc2ccccc2)n1-c1ccc(Cl)cc1	-1.6%	-16	14%	7	-5.4	15	-4
40	O=C1/C(=C/c2cccnc2)SC(=S)N1NS(=O)(=O)c1ccccc1	1.9%	-3	-2%	3	0.1	-3	2
41	O=C(CN1CCN(S(=O)(=O)c2ccc(Br)s2)CC1)N1CCCCC1	-0.5%	1	.	-38	-1.2	16	3
42	C/C(=N\NC(=O)CC1(C)OCCO1)c1cccs1	1.9%	-7	18%	5	-2.6	4	0
43	CCNC(=O)CSc1nnc(-c2cc(-c3ccc(Cl)cc3)nc3ccccc23)o1	1.2%	0	10%	4	-8.2	6	-4
44	COc1ccc(CC(N)c2csc(NC(=O)c3cccs3)n2)cc1 (stereo unspecified)	0.4%	-8	.	.	5.0	-29	0
45	CCOc1cc(Cl)c(S(=O)(=O)NCCCN2CCOCC2)cc1Cl	-0.8%	-13	13%	19	-5.4	7	1
46	CC(=O)Nc1ccc(S(=O)(=O)NCCc2ccc(S(N)(=O)=O)cc2)cc1	1.9%	-2	-2%	30	0.4	2	-2
47	CC(C)(C)c1cnnn1-c1ccc(C(=O)CCl)cc1	-3.2%	-21	-14%	-15	-6.2	6	-1
48	O=C(COC(=O)c1ccccc1OCc1ccccc1Cl)NCC1CCCO1 (stereo unspecified)	0.5%	-1	.	.	1.6	5	5
49	CCN(CC(=O)NCc1ccco1)S(=O)(=O)c1ccc(F)cc1	1.8%	-3	15%	8	-5.3	5	5
50	CCOC(=O)Cn1c(=O)c2c(nc(Br)n2Cc2ccc(Cl)cc2)n(C)c1=O	11%	-3	4%	-5	-1.3	3	2
51	CC(C)[C@H](NC(=O)c1cccc(CN(Cc2ccccc2)C(=O)/C=C/c2ccccc2)c1)C(=O)O	-0.3%	12	.	.	0.0	5	-5
52	Cc1nn(Cc2ccc(Cl)c(Cl)c2)c(C)c1NC(=O)c1noc2c1CCCCC2	-4.6%[38.3 µM]	-7	-2%	3	2.0	0	1
53	Cc1cccc(C(C)C)c1NC(=O)c1ccc(COc2ccc3c(C)cc(=O)oc3c2)cc1	-0.8%	-7	14%	3	-4.2	11	3
54	CCOc1ccc(OCC(=O)Nc2ccccc2N2CCCC2)cc1	8.1%	-5	.	0	-1.3	-18	-15
55	COCCN(CCOC)C(=O)C1CCN(c2ccc(S(=O)(=O)N3CCOCC3)cc2[N+](=O)[O-])CC1	-0.2%	2	.	11	0.9	0	-2
56	N=c1oc2ccc(Br)cc2cc1C(=O)NC1CCCCCC1	?	-10	1%	-15	-0.1	19	5
57	Cc1cc(NC(=O)CN2CCc3ccccc3C2)nc2c1c(=O)oc1ccccc12	6.2%	-4	-8%	0	-0.9	1	-15
58	O=C(Cn1cnc([N+](=O)[O-])c1)NCc1ccc(F)cc1	-0.1%	-9	-2%	20	-0.5	1	-1
59	S=C(Nc1ccccc1Cl)N(CCN1CCCCC1)Cc1ccco1	1.8%	-17	0%	-4	0.5	-11	1
60	COc1ccc(OCCSc2nnc(C)n2-c2ccccc2)cc1	-4.2%[38.3 µM]	-10	-11%	-4	-2.8	-4	-1
61	COc1ccccc1NC(=O)c1ccc2nc(C)sc2c1	-0.5%	-3	9%	4	1.0	-13	-9
62	CSCCC(NC(=O)c1cccc(S(=O)(=O)N2CCOCC2)c1)c1nc2ccccc2[nH]1 (stereo unspecified)	0.9%	-10	.	1	-2.1	0	-8
